Ab BasE inh: inhibitors of Acinetobacter baumannii siderophore enzyme BasE; inhibition, % (no concentration beside the values); 0.1% of 84,000 active; purified BasE, fluorescence polarization binding displacement; AID 485350;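 active = both replicates above 25% with normal brightness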;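 note: 0% = negative plate control signal and 100% = positive plate control signal; stock transfer was 100 nL into about 30 µL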
LANA-nucl inh: LANA-nucleosome interaction inhibition; 0.3% of 51,000 active; z-score (test concentration not listed); FITC-LANA1-23 / chicken nucleosome fluorescence polarization; active compounds read low;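 active = both repeat wells score below -2 in polarization z-score versus plate sample wells, excluding overly bright wells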;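 note: 100 nL library stock added to about 30 µL; numbers are from one replicate; some results filed as inactive read as strong as hits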
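test system = FITC-LANA peptide and chicken nucleosomes | amount = 240 nM purified chicken nucleosomes (480 nM peptide binding sites), final | reagent = 50 nM FITC-LANA1-23 probe | medium = TEN-BT buffer, pH 7.5 | doses = single compound addition by pin transfer, 100 nL per well | timing = 10–45 min, room temperature | detection = fluorescence polarization | repeats = duplicate plates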
An asterisk follows results filed as active; nt = no result given; & = joins results of further samples. A portion of the library; count on the stated rates, not on these rows.

SMILES	Ab BasE inh	LANA-nucl inh
O=C(Nc1nccs1)c1cccc(N2C(=O)C3C4C=CC(C4)C3C2=O)c1 (configuration not stated)	-1.0	1.49
O=C(c1ccc(-c2ccccc2)s1)N1CC=C(c2ccccc2)CC1	nt	-1.03
NC1(C(=O)O)CCCCC1	0.9	nt
Nc1ccc(OC(F)F)cc1	-0.2	nt
COC(=O)Cc1c(C)c2cc(Cl)c(O)cc2oc1=O	0.8	1.03
O=C(NC1CC1)c1ccc(CN2C(=O)CCn3nc(-c4ccccc4)cc32)cc1	-1.3	nt
Cc1ccc(OCC(O)CN2C(C)CCCC2C)c(C)c1 (configuration not stated)	-43.6	nt
Cc1cc(C(=O)COn2nnc3ccc(S(C)(=O)=O)cc32)c(C)n1C	0.3	nt
N#CCN(CC#N)C(=O)Cc1coc2ccc3ccccc3c12	0.2	-0.903
Cc1cc(-c2onc(C)c2C(=O)Sc2ccccc2)no1	-1.0	-0.627
CN1C(=O)C(C#N)=C(c2ccccc2)/C(=C/c2ccc(-c3ccc(F)cc3)o2)C1=O	2.2	nt
O=C1NC(c2cccc(O)c2O)Nc2sc3c(c21)CCC3 (configuration not stated)	4.5	nt
CCC(Sc1nc2ncccc2o1)C(=O)NCCc1ccccc1 (configuration not stated)	2.0	-0.0175
CC1=CC(=C(C#N)C#N)C=C(C)N1c1ccc(C)c(C)c1	-1.9	nt
Cc1noc(C)c1CSc1n[nH]c(=O)n1Cc1ccco1	1.5	nt
COC(=O)c1c(C)c(Cl)c(C)c(Cl)c1OC	-1.4	nt
COc1cccn(Cc2n[nH]c(=S)n2C)c1=O	-1.9	nt
Cc1ccc(C(=O)N(C(C)C)C(C)C)c(Cl)c1	3.4	0.009
COc1ccc(Cl)cc1S(=O)(=O)N1CCC(C(=O)NCc2ccco2)CC1	1.7	0.067
COc1ccc(/C=C2/SC(=O)N(CCc3nnc(N)s3)C2=O)cc1	1.7	-0.146
CN(C(=O)c1ccco1)c1ccccc1C(=O)O	-3.6	2.39
O=C(/C=C/c1ccc(Cl)cc1)Nc1cccc(Cl)c1	-2.8	nt
CC(c1nnnn1CCc1ccccc1)N1CCN(c2cccc(C(F)(F)F)c2)CC1 (configuration not stated)	2.0	-0.173
O=C(OCC1COc2ccccc2O1)c1cc2ccccc2[nH]1 (configuration not stated)	2.5	nt
O=C1CC(c2ccccc2)c2c(c3ccccc3[nH]c2=O)O1 (configuration not stated)	1.0	-0.558
O=C(N/N=C/c1c(O)ccc2ccccc12)c1ccccn1	3.2	-4.21
COc1ccc(-c2nc3c(c(=O)c4ccccc4n3C)c(=O)n2Cc2ccco2)cc1	-1.5	0.28
N#C/C(=C\c1ccccc1)C(=O)N1CCN(Cc2ccccc2)CC1	2.0	nt
CC(=O)N1CCN(C(=O)C2CC(=O)N(Cc3ccc(C)cc3)C2)CC1 (configuration not stated)	2.7	nt
Cc1ccc(C(CC(=O)Nc2ccccn2)N2Cc3ccccc3C2=O)cc1 (configuration not stated)	-0.5	-1.91
CCCN1C(=O)C(O)(C2CC(=O)CC(C)(C)O2)c2ccccc21 (configuration not stated)	0.7	nt
O=C(/C=N/OCc1cc(=O)n2ccsc2n1)Nc1cccc(C(F)(F)F)c1	-0.1	nt
COc1ccccc1NC(=O)c1nnc2c(-c3ccccc3)c(C)nn2c1C	2.1	-0.925
O=C(O)/C(=C\c1ccncc1)c1ccc(S(=O)(=O)N2CCCCC2)s1	0.1	nt
O=S(=O)(c1cccc(-c2nnc(-c3ccccc3)o2)c1)N1CCCC1	1.0	nt
COc1ccc(NC(=O)CSCc2nc(-c3ccc(C(C)C)cc3)no2)cc1	-2.0	nt
CC(=O)N1N=C2CCCCC2C1C(C)C (configuration not stated)	1.6	-0.322
CC(=O)Oc1ccc2cc(-c3nc4ccccc4n3C)c(=O)oc2c1	-1.3	nt
CCOC(=O)c1ccc(NC(=O)C2CC(=O)N3CCCN=C3S2)cc1 (configuration not stated)	0.1	-0.692
O/N=C(\c1ccccc1)c1cc2ccccc2o1	-0.6	-0.062
O=C(CSc1nc(=O)n(CCN2CCOCC2)c2c1CCCC2)Nc1cccc(C(F)(F)F)c1	1.4	-0.708
Cc1cc(OCC(O)CNC(C)(C)C)ccc1Cl (configuration not stated)	0.3	nt
COc1ccc(-c2cc(C3CC3)nc(SCC(=O)O)c2C#N)cc1	12.2	0.214
O=C(COc1cccc(-n2cnnn2)c1)N1CCOCC1	0.2	0.512
FC(F)(F)c1nc2ccccc2nc1Cl	-1.5	-0.135
COC(=O)CC1COc2ccccc2N1C(=O)c1cccc(Cl)c1 (configuration not stated)	nt	0.405
O=C1CCCc2c1cc(C(=O)N1CCOCC1)c(=O)n2-c1ccccc1	2.7	0.346
Cc1cc(C(=O)CN2CCCC2c2cccs2)c(C)n1-c1c(C)n(C)n(-c2ccccc2)c1=O (configuration not stated)	0.9	nt
CC(C)COC(=O)c1ccc2c(c1)C1C=CCC1C(c1ccc(Cl)cc1)N2 (configuration not stated)	2.4	nt
O=c1[nH]cccc1Br	-1.6	-0.537
CCOC(=O)NC(=O)c1cn(Nc2ccccc2)c(=O)[nH]c1=O	3.2	-1.06
COC(=O)C1C(=O)C(C(=O)/C=C/c2ccco2)C(=O)CC1(C)C (configuration not stated)	1.2	0.564
CC(SCc1ccccc1)C(=O)N1CC(=O)Nc2ccccc21 (configuration not stated)	-0.2	0.386
CC1(C)CC(=O)C(C=NCC2CCCO2)=C(O)C1 (configuration not stated)	1.4	nt
CCCNc1ncccc1C(N)=O	-2.1	2.91
Nc1ccccc1OCCN1CCOCC1	1.0	0.935
CCCCNC(=O)c1cccc(NC2=NC3CS(=O)(=O)CC3S2)c1 (configuration not stated)	-1.4	0.576
O=C1CCCc2cc(S(=O)(=O)N3CCCC(C(=O)NC4CCCC4)C3)ccc2N1 (configuration not stated)	-0.6	nt
NC(=O)c1ccc(NC(=O)COC(=O)c2ccc(-n3cnnn3)cc2)cc1	1.6	nt
N#Cc1nc(-c2cccc(O)c2)oc1N	3.6	nt

More structures
SMILES	Ab BasE inh	LANA-nucl inh
COc1ccc(-c2sc(C(=O)O)c(C)c2C#N)cc1	5.0	-0.607
CC1=[N+](CCC#N)CC(C)(C)C1	-4.5	1.09
O=C(O)CN1C(=O)Nc2ccc(Br)cc2C1c1ccccc1 (configuration not stated)	-1.9	1
CSC1=N/C(=C\C=C\c2cccs2)C(=O)S1	-4.4	nt
COCc1cc(C)nc(SCC(=O)NC23CC4CC(CC(C4)C2)C3)c1C#N	-0.2	-1.07
Cc1cc(C)cc(-n2nnnc2SCC(=O)Nc2cccc(NC(=O)c3ccco3)c2)c1	0.2	-0.138
N#Cc1c(-c2cccs2)cc(-c2cccnc2)nc1N	1.2	0.11
Cc1c(C#N)c(NC(=O)CN2CCc3ccccc3C2)n(Cc2ccco2)c1C	0.1	nt
CCN(CC)C(=O)C1CC(c2ccccc2OC)=NO1 (configuration not stated)	-0.8	-0.729
CCc1ccccc1NC(=O)CC(O)(C(=O)OC)C(F)(F)F (configuration not stated)	0.8	-1.28
CCOc1cc(-c2nn3c(-c4ccoc4C)nnc3s2)cc(OCC)c1OCC	2.2	-0.51
Cc1cc(C(=O)NC(C)c2ccccc2)c(C)o1 (configuration not stated)	0.5	nt
O=C1S/C(=C\C=C\c2ccco2)C(=O)N1CCCc1ccccc1	-2.9	0.0455
CC1SCC(NC(=O)Nc2ccc(Cl)cc2)CS1 (configuration not stated)	-2.2	nt
CCn1c(C)c(C)c2cc(C(=O)NCCN3CCN(C)CC3)ccc21	-4.0	-0.019
O=C(O)c1cccc(NNC(=O)c2ccc3c(c2)OCCO3)c1	0.6	nt
COCC(=O)N(C)C1(c2nnnn2CCOC(=O)Nc2ccc(Cl)cc2)CCCC1	1.6	-0.0845
CCc1c(C)nc2cc(-c3ccc(OC)c(OC)c3)nn2c1NCC(C)(C)CN(C)C	1.1	-1.23
CCC1(COC(NC(=O)c2ccc(Cl)cc2Cl)(C(F)(F)F)C(F)(F)F)COC1	1.4	nt
CCC1SC(CC)C(=O)N(CC(=O)Nc2ccc(F)cc2F)C1=O (configuration not stated)	1.3	-0.868
Cc1ccc(N2CS(=O)(=O)CC2=O)cc1	nt	0.231
COc1nc2ccccc2cc1/C=C/C(=O)O	1.4	nt
CC(C)OC(=O)c1cc2c(ccn2-c2ccc(F)cc2)n1C	2.4	0.737
CCNc1sc(C(=O)OCC)c(N)c1C#N	3.7	nt
COC(=O)C12C3CCC4C5C3C1C5(C(=O)OC)C42 (configuration not stated)	1.2	nt
O=C(CC(c1ccccc1)c1ccccc1)c1nnc(-c2ccccc2)o1	-0.9	nt
CCS(=O)(=O)c1ccc2oc(SCC(=O)Nc3ccccc3C(F)(F)F)nc2c1	-1.6	nt
COC(=O)c1c(C)[nH]c(C(=O)COn2nnc3ccc(S(=O)(=O)N(C)C)cc32)c1C	1.1	nt
CCCc1c(C(=O)Nc2cc(-c3ccccc3)nn2C)cnn1-c1ccccc1	-1.8	-0.015
O=c1[nH]c(=S)[nH]c2ccccc12	-0.8&-0.6	1.15&1.75

Structural class, the entries above containing a CF3 group.
SMILES	Ab BasE inh	LANA-nucl inh
CC(c1nnnn1CCc1ccccc1)N1CCN(c2cccc(C(F)(F)F)c2)CC1 (configuration not stated)	2.0	-0.173
O=C(/C=N/OCc1cc(=O)n2ccsc2n1)Nc1cccc(C(F)(F)F)c1	-0.1	nt
O=C(CSc1nc(=O)n(CCN2CCOCC2)c2c1CCCC2)Nc1cccc(C(F)(F)F)c1	1.4	-0.708
FC(F)(F)c1nc2ccccc2nc1Cl	-1.5	-0.135
CCc1ccccc1NC(=O)CC(O)(C(=O)OC)C(F)(F)F (configuration not stated)	0.8	-1.28
CCC1(COC(NC(=O)c2ccc(Cl)cc2Cl)(C(F)(F)F)C(F)(F)F)COC1	1.4	nt
CCS(=O)(=O)c1ccc2oc(SCC(=O)Nc3ccccc3C(F)(F)F)nc2c1	-1.6	nt

Remaining list, next part.
SMILES	Ab BasE inh	LANA-nucl inh
COc1ccc(CCNC(=O)CCCn2nc(C)n3ccnc3c2=O)cc1OC	0.4	-1.58
CCOC(=O)C(Sc1n[nH]c(N)n1)c1ccccc1 (configuration not stated)	3.1	nt
COc1ccc(S(=O)(=O)N2CCN(C(=O)c3cc(C)oc3C)CC2)cc1	3.5	nt
COCCN(C(=S)Nc1ccccc1C)C1CCN(C(C)C)CC1	2.5	-0.839
CC(C)NC(=O)NNc1cc(N(C)C)c(C#N)c(N(C)C)n1	1.9	-0.72
COCc1cc(C)nc2sc(C(=O)N3CCC(C)CC3)c(N)c12	1.5	-0.522
N#Cc1ccc(COC(=O)c2cnc3ncccn3c2=O)cc1	1.0	nt
O=C(CSc1nccn(-c2cccc(F)c2)c1=O)NC1CCCCC1	-4.2	2.16
N#Cc1ccc(C(=O)OCc2ccc(-c3cccc(Cl)c3Cl)o2)c(F)c1	-1.5	1.06
COc1ccccc1NC(=S)N=Nc1c(O)n(CN2CCN(c3ccccc3)CC2)c2ccccc12	3.5	-0.8
CC(c1ccccc1)n1cc(C(=O)NCCN2CCCCCC2)nn1 (configuration not stated)	-1.7	-0.718
C=C1C2(C(=O)Nc3nccs3)CCC(C2)C1(C)C (configuration not stated)	-1.4	-0.951
Cc1ccn2c(NC3CCCCC3)c(C)nc2c1	-4.0	2.23
COc1ccc(CNc2ccccc2C(=O)O)c(OC)c1OC	1.6	-0.0785
CCCCCSc1nnc(-c2ccc(Cl)cc2Cl)o1	0.4	0.162
O=C(O)CCC(=O)N1N=C2/C(=C/c3ccco3)CCCC2C1c1ccco1 (configuration not stated)	1.7	nt
O=C(CC1C(=O)NCCN1C(=O)Nc1ccccc1)Nc1cc(Cl)ccc1Cl (configuration not stated)	0.5	nt
CCC(Oc1ccc(F)cc1)C(=O)Nc1nonc1-c1ccccc1 (configuration not stated)	1.5	0.697
COc1ccc(Cc2nnc3n2N=C(C(C)(C)C)CS3)cc1	-0.3	nt
O=C1c2ccccc2-c2onc3c(N4CCN(c5ccccc5)CC4)ccc1c23	-16.0	0.946
Cc1cccc(NC(=O)CSCC(=O)Nc2ccc(S(N)(=O)=O)cc2)c1	-0.4	nt
CC(C)NC(=O)Cn1ncc2c3ccccc3n(Cc3ccc(F)cc3)c2c1=O	0.6	-0.567
CCN1C(=O)CC(C(=O)NC)SC1=Nc1cc(Cl)c(O)c(Cl)c1 (configuration not stated)	2.6	-0.297
CCOc1ccccc1/C=c1\s/c(=C(/C#N)C(N)=O)n(CCN2CCOCC2)c1=O	0.4	nt
CCCCS(=O)(=O)Nc1cc(C(C)(C)C)ccc1O	-21.0	nt
COCCNC(=O)c1cnc(N2CCCC2)nc1	1.1	-1.02

Some of the entries so far, field by field.
structure: COc1ccc(S(=O)(=O)N2CCN(C(=O)c3cc(C)oc3C)CC2)cc1
  Ab BasE inh: 3.5
  LANA-nucl inh: nt
structure: CC(C)NC(=O)Cn1ncc2c3ccccc3n(Cc3ccc(F)cc3)c2c1=O
  Ab BasE inh: 0.6
  LANA-nucl inh: -0.567
structure: C=C1C2(C(=O)Nc3nccs3)CCC(C2)C1(C)C (configuration not stated)
  Ab BasE inh: -1.4
  LANA-nucl inh: -0.951

Screening data from PubChem.
